# S aureus helic – blocks Staphylococcus aureus DNA helicase. 120,000 compounds, 0.05% hits. purified S. aureus helicase, fluorescence unwinding assay; about half of the hits fall short of the stated cut. inhibition, %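 (tested at about 80 µM)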. AID 485395;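 active = both duplicates at 50% or more, or one of them with a favoured structure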;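 note: 0% = mean of negative control wells and 100% = mean of positive control wells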
# MgrA DNA FP – alters Staphylococcus aureus MgrA binding to DNA. fluorescence polarization. inhibition, %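 (about 10 µg/mL by stock and volumes)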. 84,000 compounds, 0.13% hits. AID 602314;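 active = above 50% in either of two replicates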;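 note: 0% = protein plus DNA without compound and 100% = DNA alone without protein; higher means less MgrA bound to DNA so lower polarization; one replicate is shown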
# An asterisk follows results filed as active; . = no result given; & = joins results of further samples. An excerpt. The share of hits here may be higher or lower than overall.
smiles	S aureus helic	MgrA DNA FP
CCn1c(SCC(=O)N2CCCCC2)nnc1-c1ccccc1O	11	0.7
CCOC(=O)Cc1csc(NC(=O)Nc2ccccc2)n1	.	-2.0
O=C(CCNC(=O)c1ccccc1)Oc1ccc2c(c1)OCO2	-7	.
CCOC(=O)CSc1nc(C)cc(C)c1C#N	.	4.2
Cc1csc2c(N3CCN(C(=O)c4ccc(Cl)cc4)CC3)ncnc12	17	.
COC(=O)c1cccc(NC(=O)CSc2ncccn2)c1	18	10
CC(=O)Nc1ccc(C(=O)OCC(=O)N2CCc3ccccc3C2)cc1	4	-0.5
O=C1CS/C(=N\N=C2C3CC4CC(C3)CC2C4)N1	5	0.5
CCCCC1CCC(C(=O)Nc2nonc2-c2ccc(OCC)c(OCC)c2)CC1 (stereo unspecified)	8	1.0
COc1ccc(CNC(=O)CN2CC(C)CC(C)C2)c(OC)c1 (stereo unspecified)	10	-31
COc1ccccc1NC(=O)N1CCN(Cc2ccccc2)CC1	8	-0.7
COc1ccc(S(=O)(=O)N2C(C)CCCC2C)cc1 (stereo unspecified)	8	.
CCOc1ccc(S(=O)(=O)N(C)CC(=O)NC2CCCCC2)cc1C	7	1.3
CN1CCc2c(sc(-n3cccc3)c2CNC(=O)NCc2ccccc2)C1	8	.
CCOP(=O)(/C(C#N)=C(\C)O)c1ccccc1 (stereo unspecified)	-19	.
COC(=O)C1=C(Nc2ccccc2NC(=O)c2ccccc2C(=O)O)CSC1	.	-2.5
CCOC(=O)N1CCN(C(=O)C(NC(=O)c2ccc(C(C)(C)C)cc2)C(C)C)CC1 (stereo unspecified)	-3	.
COc1cccc(-c2ocnc2C(=O)Nc2ccc(N3Cc4ccccc4C3)cc2)c1	7	-1.9
Cc1cc2ccccc2c(=O)n1CC(=O)NCCC1=CCCCC1	-28	.
O=C(O)CN1C(=O)CSc2ccccc21	9	-7.7
CCOC(=O)c1sc2nc(NC(=O)c3cccs3)sc2c1C	4	.
CCOC(=O)c1c(NC(=O)CSc2nc(C)cc(C)n2)sc2c1CCC2	29	.
Cc1cccc(C)c1NC(=O)C1c2cccc[n+]2CC(=O)N1CCO (stereo unspecified)	14	.
COC(=O)c1ccc2cc(C(=O)O)ccc2c1	-2	.

# Next part, starting with the last two of the part before.
smiles	S aureus helic	MgrA DNA FP
Cc1cccc(C)c1NC(=O)C1c2cccc[n+]2CC(=O)N1CCO (stereo unspecified)	14	.
COC(=O)c1ccc2cc(C(=O)O)ccc2c1	-2	.
CCCCNS(=O)(=O)c1ccc(S(=O)(=O)n2cnc3ccccc32)cc1	-5	0.4
CC1=[N+]([O-])C(N2CCOCC2)C(O)(c2ccccc2)C1 (stereo unspecified)	31	.
Cc1[nH]c2ccc(Cl)cc2c(=O)c1I	.	-2.9
FC(F)(F)Oc1ccc(N=Cc2ccc(Br)cc2)cc1	12	-1.8
Cc1nc2ccc(C(=O)OCC(=O)C(C)(C)C)cc2nc1C	6	.
CC(C)(C)OCC(O)CN1CCN(C(=O)c2ccccc2)CC1 (stereo unspecified)	3	-6.9
CS/C(=N\S(=O)(=O)c1ccc(C)cc1)N1CCCCCC1	-5	.
Nc1cc(N)nc(SCC(=O)NCc2ccccc2)n1	2	-0.6
COC(=O)CCC(=O)N1CCOCCOCCOCC1	9	1.2
O=C(COC(=O)C1(CC(=O)N2CCOCC2)CCCC1)Nc1c(F)cccc1F	16	.
COc1ccccc1NC(=O)COc1ccccc1O	-9	0.7
Nc1ncc(N=Nc2cc(C(=O)O)cc(C(=O)O)c2)s1	22	.
CN(C)Cn1c(O)c(N=NC(=O)COc2ccc(Cl)cc2)c2ccccc21	15	.
COc1ccc(OC)c(NC(C)=O)c1	.	2.1
CCC(C)n1nccc1NC(=O)C(C)Sc1ccccc1F (stereo unspecified)	-3	.
CC(C)N(CC(N)=O)c1nc(-c2cccnc2)nc2ccccc12	9	.
Cc1ccc(N/C(=N/C(N)=S)c2ccccc2)cc1	10	1.2
CCOc1ccc(C(=O)Nc2nnc(C(C)C)s2)cc1	6	.
C[n+]1ccccc1/C=N/O	.	-2.8&1.1
CCOC(=O)N1CCc2c(sc(NC(=O)c3ccco3)c2C(=O)Nc2cc(OC)ccc2OC)C1	8	.
FC(F)(F)c1cccc(N2Cc3ccccc3C2)c1	-10	.
COC(=O)c1cccnc1NC(=S)NC1CCCCC1	-5	.
COC(=O)c1ccc2nc(C)ccc2c1	-7	-2.9
O=C(NCC(=O)c1cccs1)NC1CCCC1	-5	.

# Given with values ahead of the structure: part of the list above
S aureus helic,MgrA DNA FP,Molecule
-7,-2.9,COC(=O)c1ccc2nc(C)ccc2c1
8,.,CCOC(=O)N1CCc2c(sc(NC(=O)c3ccco3)c2C(=O)Nc2cc(OC)ccc2OC)C1
-10,.,FC(F)(F)c1cccc(N2Cc3ccccc3C2)c1
6,.,CCOc1ccc(C(=O)Nc2nnc(C(C)C)s2)cc1
-3,.,CCC(C)n1nccc1NC(=O)C(C)Sc1ccccc1F (stereo unspecified)

# (next part)
smiles	S aureus helic	MgrA DNA FP
O=C(NCc1ccc(F)cc1)c1cccc2c1C(=O)N(Cc1cccnc1)C2	20	.
COc1cc(S(=O)(=O)NCc2ccco2)c(OC)cc1Br	-14	.
CCCOc1nc(N)c(C#N)c(-c2ccccc2F)c1C#N	5	-2.0
O=C(CN1C(=O)c2ccccc2C1=O)NCC(F)(F)F	-2	.
S=c1[nH]c2c(s1)sc1ccccc12	3	6.6
O=C(c1cccc(C(F)(F)F)c1)N1CCN(c2cccc3[nH]ccc23)CC1	.	-2.4
CCc1ccc(S(=O)(=O)c2cn(C)c3ccccc3c2=O)cc1	5	8.9
Cc1cccc(N2C(=O)CC(Sc3ncccc3C(=O)O)C2=O)c1 (stereo unspecified)	-15	.
CCCC(C)C(=O)Nc1nnc(C)s1 (stereo unspecified)	10	-1.8
O=C(Nc1ccccc1C(=O)NCc1ccccc1)c1ccccc1	10	1.6
O=C(COC(=O)c1ccc2c(=O)n3c(nc2c1)CCCCC3)Nc1ccc2c(c1)OCCO2	-11	.
CCc1nc(NCC2CCCO2)c(C#N)c2c1COC(C)(C)C2 (stereo unspecified)	0	.
COc1ccc(C(=O)N2CCc3ccccc32)cc1OC	8	1.6
N#Cc1ccccc1Cn1cc(C=C2C(=O)NC(=O)NC2=O)c2ccccc21	-87	.
CCCCNC(=O)C1CCC(CNS(=O)(=O)c2ccccc2)CC1 (stereo unspecified)	-5	.
Cc1ccc(Nc2nc(Oc3ccc(=O)n(-c4ccccc4)n3)nc(N(C)C)n2)cc1	18	.
N#CCc1c(C#N)c(N)nc(N2CCN(Cc3ccc4c(c3)OCO4)CC2)c1C#N	-7	.
CCC1c2[nH]c3ccccc3c2CCN1C(=O)c1ccc(Cl)cc1 (stereo unspecified)	.	-1.9
Cc1oc(S(=O)(=O)N2CCOCC2)cc1-c1nc(-c2ccc(C(F)(F)F)cc2)no1	-28	.
NCC(c1ccco1)N1CCOCC1 (stereo unspecified)	6	0.1
Cc1ccc(S(=O)(=O)NCCc2cccs2)cc1	.	4.4
Cc1nc(-c2ccncc2)nc(NCCNc2ccc(C(F)(F)F)cn2)c1Cl	.	0.0
Nc1ncnc2c1ncn2CCNCc1ccc2c(c1)OCO2	1	.
COC(=O)c1cccc(Cn2nc(C)c(Br)c2C)c1	.	-0.6
CC1=NN(CCC#N)C(=O)/C1=C\c1ccc(N(C)C)cc1	17	.
FC(F)(F)c1cc(Br)cc(Br)c1	-25	.
O=C1C=C(Cl)CC(c2ccc(C(F)(F)F)cc2)C1 (stereo unspecified)	.	-2.5
Cc1cc(NC(=O)c2cc(-c3cccc(O)c3)on2)no1	-8	.
O=C(NNc1ncnc2sc3c(c12)CCCC3)c1ccccc1-n1cccc1	-20	.
CN(C)/N=C(\NO)c1c(F)cccc1Cl	.	0.9
Cc1ccc(NC(=O)C2CCCN(S(=O)(=O)c3ccc4c(c3)CC(C)N4C(=O)C3CC3)C2)nc1 (stereo unspecified)	5	0.1
CC(CCc1ccccc1)NC(=O)CN1CC(C)OC(C)C1 (stereo unspecified)	-5	.
O=C1CCC(C(=O)OCc2nnc(-c3ccccc3)o2)=NN1	-2	.
CSc1nnc(CCNC(=O)N2CCOCC2)n1C(C)C	18	-0.3
CN(C)/C=C/C(=O)c1ccccc1	10	.
CN(C)S(=O)(=O)c1ccc(C(=O)N2CCCCCCC2)cc1	5	.

# The list goes on:
# Values run as follows: S aureus helic	MgrA DNA FP
COC(=O)Cn1cnc2c(cnn2-c2ccc(F)cc2)c1=O
    16	.
O=S(=O)(Nc1ccc(O)c2ccccc12)c1ccccc1
    2	4.7
C=CCn1c(C2CC(=O)N(c3cccc(C)c3)C2)nc2ccccc21 (stereo unspecified)
    9	.
NC1=NC(c2ccccc2)CC(=O)N1 (stereo unspecified)
    10	0.4
Cn1cc(S(=O)(=O)CC(=O)N2CCCCCC2)c2ccccc21
    12	.
Cc1ccc(-c2csc3ncnc(SCCC(=O)O)c23)cc1
    2	.
CN(C)/C=C1\COc2ccc(Cl)cc2C1=O
    5	.
CSc1ccccc1NC(=O)C1CC1C (stereo unspecified)
    -7	.
Cc1csc(C(C#N)C(=O)CSc2nnc(Nc3cccc(F)c3)s2)n1 (stereo unspecified)
    10	.
CC1CCCC/C1=N\NC(N)=O (stereo unspecified)
    -15	.
COc1ccc(OCC(=O)NCC(=O)O)cc1
    6	-1.5
COC(=O)CN1CC(=O)NC(=O)C1
    -12	.
OC(c1ccc(Cl)cc1)c1nnc(-c2ccccc2)o1 (stereo unspecified)
    -4	.
CCOc1ccc(CN(C2CC2)S(=O)(=O)c2ccc(S(=O)(=O)N(C)C)cc2)cc1
    20	.
C=CCn1c(=S)sc2c(=O)n(Cc3cccc(C(F)(F)F)c3)cnc21
    -6	.
O=C(NCc1ccc2c(c1)CCO2)c1cccs1
    .	-4.8
Cc1ccc(NC(=S)Nc2cc(C(=O)N3CCC4(CC3)OCCO4)ccc2N2CC3CC(C2)c2cccc(=O)n2C3)cc1 (stereo unspecified)
    5	.
O=c1[nH]c(CSc2cccc[n+]2[O-])nc2ccccc12
    11	4.0
Oc1ccccc1/C=N/C1=NNC(c2ccccc2)=CS1
    9	2.6
O=C(c1ccccc1C(F)(F)F)N1CCCc2ccccc21
    32	.
O=c1c(-c2ccc3c(c2)OCCO3)coc2cc(OC3OC(CO)C(O)C(O)C3O)ccc12 (stereo unspecified)
    .	-0.2
CC(=O)c1c(C)nn(-c2ccccc2)c1-c1ccccc1[N+](=O)[O-]
    .	-1.2
O=C(COC(=O)c1cncc(Br)c1)NCc1ccc(F)cc1
    8	.
COc1ccc(/C(O)=C2\C(=O)C(=O)N(CCN3CCNCC3)C2c2ccccc2)cc1 (stereo unspecified)
    2	.
O=c1[nH]ncc2c1[nH]c1ccccc12
    10	.
COc1cc(Cl)c(Cl)cc1Cl
    .	-0.9
CCOc1ccc(NC(=O)c2c(N)sc3c2CCC3)cc1
    -1	-1.4
CN/N=C/c1ccc(C#N)cc1
    21	.
NC(=O)c1sc2nc(C3CC3)cc(-c3cccs3)c2c1N
    1	.
O=S1(=O)c2cccc3cccc(c23)N1CC1CN(Cc2ccccc2)CCO1 (stereo unspecified)
    5	.

# Compound profiles, from the list above. Values in the order: S aureus helic | MgrA DNA FP
# Entry for Oc1ccccc1/C=N/C1=NNC(c2ccccc2)=CS1 = 9 | 2.6
# Entry for COc1ccc(/C(O)=C2\C(=O)C(=O)N(CCN3CCNCC3)C2c2ccccc2)cc1 (stereo unspecified) = 2 | .
# Entry for CC(=O)c1c(C)nn(-c2ccccc2)c1-c1ccccc1[N+](=O)[O-] = . | -1.2
# Entry for O=C(c1ccccc1C(F)(F)F)N1CCCc2ccccc21 = 32 | .

# Remaining list, next part.
# Values run as follows: S aureus helic	MgrA DNA FP
CCOC(=O)c1c[nH]c2c(ccc3ccccc32)c1=O
    13&5	.
CC(NS(=O)(=O)c1ccc(N)cc1)C1CC2CCC1C2 (stereo unspecified)
    6	.
CCN(c1ccccc1)S(=O)(=O)c1ccc(N)cc1
    5	-1.5
CCC(=O)Nc1ccc(Cl)cn1
    -2	-0.9
Cn1c(C2CCCO2)nc2ccccc21 (stereo unspecified)
    19	.
CCN1C(=O)/C(=C2\SC(=S)N(N)C2=O)c2ccccc21
    18	10
CCCC(=O)Nc1ccc2nc(-c3ccccc3)[nH]c2c1
    1	3.5
Cc1cc(=O)n(CCOc2ccccc2)c2c1c(C)nn2-c1ccccc1
    2	.
O=C(O)C1CC(=O)N(CCCN2CCOCC2)C1 (stereo unspecified)
    16	-3.8
CN(Cc1ccccc1)S(=O)(=O)c1ccc2c(c1)n(C)c(=O)n2C
    -15	-0.8
CN(CC1COc2ccccc2O1)c1nnnn1-c1ccccc1 (stereo unspecified)
    8	.
c1ccc(CN2CCN(Cc3c[nH]c4ccccc34)CC2)cc1
    -16	.
CCOC(=O)c1nn(-c2ccccc2)c(=O)c2c(NC(=O)C(C)C)scc12
    6	.
Cc1ccc(Cn2nnc3c(=O)[nH]c(C(=O)NC(C)(C)C)nc32)cc1
    11	-25
COc1ccc(Cl)cc1S(=O)(=O)NCc1cccnc1
    12	.
Nn1c(SCC(=O)NC(=O)NC2CCCC2)nnc1SCC(=O)NC(=O)NC1CCCC1
    4	.
NC(=S)Sc1nncn1C(=O)c1ccc(=O)[nH]n1
    -12	.
Cc1ccc(S(=O)(=O)NCc2csc(-c3ccccc3)n2)c(C)c1
    9	-2.0
COc1ccc(-c2noc(CNC(=O)c3ccc(C)cc3C)n2)cc1OC
    1	-3.1
O=C(Nc1ccccc1C(=O)O)c1cccc(Cl)c1
    8	0.0
O=C(O)c1ccc(-n2cnc3ccccc3c2=O)cc1
    -38	-0.6
COc1ccc(NC(=O)c2c[nH]c(=O)[nH]c2=O)cc1
    3	.
